Source: PubChem BioAssay (National Center for Advancing Translational Sciences (NCATS))
VACV Venus inh: inhibitors of vaccinia virus (Venus reporter); Vaccinia virus Venus reporter expression, fluorescence; Potency, µM (titrated, usually from 36.5 µM), inactives show at the highest dose activity change, negative = inhibition, actives largely listed as inhibitors; 330,000 compounds, 0.46% hits; AID 720580; active means well fitted inhibition curve with a large enough effect; inconclusive means small, poorly fitted or top-dose-only effect; inactive means no such curve, though single readings can be large or run the other way; tested in A549 cells; note: nearly all actives have a fitted effect of over 30% in size; inactives centre near -10
VACV mCherry inh: inhibitors of vaccinia virus infection (mCherry reporter signal) | Potency, µM (top dose mostly 36.5 µM), without a hit: at the highest dose activity change, negative = inhibition, hits mostly inhibitors | Vaccinia virus mCherry reporter infection, fluorescence; about a quarter of the inactives have no number | 310,000 compounds, 0.63% hits; active = well fitted inhibition curve with a large enough effect; inconclusive = small, poorly fitted or top-dose-only effect; inactive = no such curve, though single readings can be large or run the other way; tested in A549 cells; note: nearly all actives have a fitted effect of over 35% in size; inactives centre near -10
Numbers without * were called inactive; i = inactive; ? = inconclusive; nt = no result given; [ ] = another dose, or the depositor's remark. % is set by controls: 0 for no effect and ±100 for the full control effect; potency is the fitted concentration of half-maximal effect. No enrichment for hits; any-hit rate near 0.87%.

canonical_smiles | VACV Venus inh | VACV mCherry inh
O=C(CN1CCN(C(c2ccccc2)c2ccccc2)CC1)N1N=CCC1c1ccccc1 (stereo not given) | -6.4% | -0.7%
COc1cc(OC)c2c(-c3ccccc3)cc(=O)oc2c1C(CC(=O)N1CCOCC1)c1ccc2c(c1)OCO2 (stereo not given) | -18.3% | -7.1%
COC1=CC(=O)OC(CCc2ccc3c(c2)OCO3)C1 (stereo not given) | -6.7% | 0.6%
O=C(CCSc1nc(-c2ccco2)cc(C(F)(F)F)n1)N1CCN(c2ccccn2)CC1 | -10.9% | nt
CCCNC1=C(C)C(=O)C2=C(C1=O)C(COC(N)=O)[C@]1(OC)C3NC3CN21 (stereo not given in full) | ? | ?
Clc1ccc(C(CCN2CCCC2)Cc2ccccc2)cc1 (stereo not given) | -8.8% | i
CC(NC(=O)NC(N)=O)(C(F)(F)F)C(F)(F)F | -19.1% | -13.3%
CSc1ncccc1C(=O)NC1CCCCCCC1 | -11.9% | i
Cc1scc(C(=O)NNC(=S)NCC2CCCO2)c1-c1ccccc1 (stereo not given) | -12.9% | -0.8%
CCOC(=O)C1(C)CCN1C(=O)c1ccoc1 (stereo not given) | -4.2% | 10.3%
Cc1nnc(SCCn2c(N3CCC(Cc4ccccc4)CC3)nc3c2c(=O)[nH]c(=O)n3C)s1 | -3.9% | i
O=C(Nc1ccccc1C(=O)N1CCCC1)c1ccccc1 | -4.3% | -10.6%
O=C1NC(=O)C(=Cc2ccc(N3CCOCC3)o2)C(=O)N1 | -5.5% | i
COc1ccc(OC)c(C2CC(=O)c3c([nH]c(C(=O)OCc4ccc(C)cc4)c3C)C2)c1 (stereo not given) | -25.8%[7.34 µM] | -5.5%[7.34 µM]
Cc1ccc(NC(=S)Nc2cccc3ccccc23)cc1 | -2.8% | ?
CN(C)C(=O)CNC(=O)C1CCCCC1 | -6.2% | i
COc1ccc(S(=O)(=O)N2CCN(C/C=C/c3ccccc3)CC2)cc1F | -6.3% | ?
CC(=O)c1ccc(OCc2cc(C(=O)N(C)C(C)c3ccon3)no2)cc1 (stereo not given) | -10.6% | i
CCOC(=O)c1c(C)[nH]c(CCC(=O)Nc2ccc(N(CC)CC)cc2C)c1C | -5.1% | -4.7%
Cc1cccc(C(=O)Nc2cccc(C(=O)N/N=C/c3ccc4c(c3)OCO4)c2)c1 | -18.5% | -28.6%
CCOc1ccc(S(=O)(=O)N2CCN(C(=O)c3cc(C4CC4)nn3-c3ccccc3)CC2)cc1 | ? | -27.8%
O=C1NCN(c2ccccc2)C12CCN(C(c1ccccc1)c1nnnn1Cc1ccccc1)CC2 (stereo not given) | -8.6% | i
O=C(COC(=O)C12CC3CC(CC(Br)(C3)C1)C2)NCc1ccco1 | -11.0% | -1.1%
CC(=O)c1ccc(NC(=O)CCc2nc(-c3ccc(C)cc3)no2)cc1 | 4.9% | -10.3%
CN(C)c1ccc(-c2cccc3nccn23)cc1 | -17.6% | 14.4%
COc1ccc(N(C)C(=O)C2CCCN2S(=O)(=O)c2cccc3nsnc23)cc1 (stereo not given) | 2.3%[7.34 µM] | -1.5%[7.34 µM]
O=C(Cn1cnc2ccccc2c1=O)NCC(=O)N1CCN(Cc2ccc3c(c2)OCO3)CC1 | -21.2% | nt
O=S(=O)(NCc1ccccn1)c1cccc2nsnc12 | -23.6% | nt
CCC(CC)C(=O)N(C)c1c(C)nc2c(OCc3ccccc3OC)cccn12 | -1.2% | -7.3%
Cc1cc(CN(C)C(=O)c2cc(COc3ccc(F)cc3Cl)on2)n[nH]1 | -9.5% | i

canonical_smiles | VACV Venus inh | VACV mCherry inh
COc1cccc(OC)c1CN1CCC2(CCC(CNC(=O)c3ccn(C)n3)O2)CC1 (stereo not given) | -12.9% | i
C=CCC[C@@H](Cc1ccc(F)cc1)C(=O)OC[C@@H]1CCCN1C(=O)[C@H](CC=C)CC(=O)N[C@H](CO)Cc1ccccc1 | ? | ?
O=C(NCCc1cccs1)C1CC(c2ccccc2[N+](=O)[O-])=NO1 (stereo not given) | -8.8% | -9.6%
CCOc1ccc(NC(=O)CCc2nc3cccnc3n2Cc2ccc(OC)cc2)cc1 | -22.1% | -17.3%
Cc1cc(C(=O)Oc2cccnc2)ccc1[N+](=O)[O-] | -12.3% | -1.9%
O=C(O)CNC(=O)c1ccc(NC(=O)/C(=C/c2ccccc2)NC(=O)c2ccco2)cc1 | -17.6% | -7.7%
O=C1OCCN1C(=O)[C@H]1[C@H](c2ccccc2)C(c2cccc(Cl)c2)=NN1c1ccc(Br)cc1 | -28.8% | -18.9%
CCOC(=O)C1CCN(C(=O)Nc2ccc3c(c2)nc(C)n3C)CC1 | -4.7% | -7.3%
Cc1nc(C)c(-c2csc(Nc3cccc(O)c3)n2)s1 | -29.0% | ?
CCCCN1C[C@H](Cc2ccccc2)[C@@H](CC(=O)Nc2ccc(OC)cc2)C1=O | -13.7% | -27.6%
CCOc1ccc(NS(=O)(=O)c2ccc(OC)c(NC(=O)c3ccc4c(c3)OCCO4)c2)cc1 | -14.7% | -18.3%
C=CCN1CCN(C(c2ccc(Cl)cc2)c2nnnn2CCc2ccc(OC)c(OC)c2)CC1 (stereo not given) | -18.9% | i
O=C(Nc1cccc(S(=O)(=O)N2CCCCC2)c1)c1cnccn1 | -4.7% | i
CC(=O)c1ccc(N2CCN(C(=O)CCc3ccccc3)CC2)cc1 | -16.3% | -25.0%
C=CCN(C(=O)CN1CCCCC1)c1nc(-c2ccccc2)cs1 | -22.7% | -16.9%
CC(C)Oc1ccc(C(=O)Nc2nnc(C3=COCCO3)o2)cc1 | -16.4% | -22.9%
C/C(=N\NC(=O)c1cccc(O)c1)c1ccc(NC(=O)Cc2ccccc2)cc1 | -17.5% | -2.3%
CCOC(=O)/C(=C\c1ccc(N2CCC(c3ccccc3)=N2)cc1)C(C)=O | 0.7% | -9.9%
O=C(NC(=S)Nc1ccc(N2CCCCC2)c(Cl)c1)c1ccc2c(c1)OCCO2 | ? | ?
O=C(CCCCCn1c(=S)[nH]c2ccc(N3CCOCC3)cc2c1=O)NCc1cccc(Cl)c1 | 0.1% | 0.7%
CN(C)S(=O)(=O)c1ccc(C(=O)OCC(=O)Nc2sc3c(c2C#N)CCCCC3)cc1 | -7.1% | -18.9%
COC(=O)C1=C(c2cc3ccccc3o2)C[C@@H]2CC[C@H]1N2C(=O)NCc1ccc(C(F)(F)F)cc1 | ? | i
O=C(CCSc1ccccc1)NCCSCc1ccco1 | -19.1% | -23.3%
CCOc1ccccc1N(CC(=O)NCCSc1ccccn1)S(=O)(=O)c1ccccc1 | -7.9% | -6.4%
O=C(CSc1nc2sc3c(c2c(=O)n1-c1ccccc1)CCCC3)N/N=C/c1ccccc1C(=O)O | -0.3% | -12.9%
C/C(CC(=O)NC12CC3CC(CC(C3)C1)C2)=N\NC(=O)c1ccc(C)cc1 | -19.5% | -4.7%
O=C(COC(=O)c1cc(S(=O)(=O)N2CCOCC2)c(Cl)cc1Cl)NCc1ccco1 | 4.3% | -9.8%
CC(=O)c1cccc(NC(=O)c2c(C)nn(-c3ccccc3)c2Cl)c1 | -8.9% | -11.4%
N#CC1=C(N)Oc2n[nH]c(-c3ccccc3)c2C1c1cccc(OC(=O)N2CCOCC2)c1 (stereo not given) | -11.0% | i
COc1ccc(-c2nc3ccccc3n2OCC(=O)O)cc1 | -11.3% | -10.2%

In another format: results already given.
Every second line gives: VACV Venus inh | VACV mCherry inh
CC(=O)c1cccc(NC(=O)c2c(C)nn(-c3ccccc3)c2Cl)c1
 : -8.9% | -11.4%
CCOc1ccc(NS(=O)(=O)c2ccc(OC)c(NC(=O)c3ccc4c(c3)OCCO4)c2)cc1
 : -14.7% | -18.3%

More structures.
canonical_smiles | VACV Venus inh | VACV mCherry inh
CS(=O)(=O)NCC(c1cccnc1)N1CCN(c2ccc(F)cc2)CC1 (stereo not given) | -6.1% | -26.1%
COc1ccc2nc(/C(C#N)=C\c3ccc(C(=O)O)cc3)[nH]c2c1 | -2.9% | -7.1%
CCOc1ccc(-c2nc3n(c(=O)c2C#N)CCS3)cc1 | -10.8% | -13.5%
COCCCNC(=O)CNC(=O)c1cn(-c2ccccc2OC)c(=O)c2ccccc12 | -7.8% | i
CCN(CC)C(=O)/C(=C/c1ccc2c(c1)OCO2)NC(=O)c1ccc(Br)cc1 | 1.8% | -28.6%
COc1ccc(-c2cn(CCCOCc3ccccc3)nn2)cc1 | -6.6% | -19.0%
COc1ccc(CCNC(=O)C(=O)Nc2ccc3c(c2)OCO3)cc1OC | 0.9% | 7.0%
O=C(O)c1ccc(C(S(=O)(=O)c2ccccc2)S(=O)(=O)c2ccccc2)cc1 | -6.2% | i
COc1ccc(-c2c[n+]3c(n2-c2ccc(C)cc2)CCCCC3)cc1 | -18.1% | i
COc1cc2c(cc1OC)CN(c1ccc(C(N)=O)cc1[N+](=O)[O-])CC2 | -11.2% | ?
COCCNC(=S)N/N=C(\C)c1ccc2cc(OC)ccc2c1 | -24.5% | ?
Clc1ccccc1CSc1nnc(-c2ccco2)c(-c2ccco2)n1 | -3.9% | i
Cc1ccccc1C(=O)OCC(=O)NCc1ccco1 | -25.8% | -5.9%
CN(C)C(=O)c1cc(S(=O)(=O)N(C)C)c(Cl)cc1N1CCCC1 | -6.5% | -10.8%
Cc1cc(C)cc(OCC(=O)OC(C)C(=O)Nc2ccc(Cl)cn2)c1 (stereo not given) | -14.2% | -18.3%
C#CCNc1nc(CC)nc2c1nnn2Cc1ccccc1F | -11.9% | -3.3%
CC(=O)N1C[C@H]2CON(C)[C@H]2C[C@H]1c1ccc(-c2ccccc2)cc1 | 11.9% | -13.4%
CC1Cc2ccccc2N1S(=O)(=O)c1cccc(C(=O)NC2CC2)c1 (stereo not given) | ? | nt
CCc1ccc2c(CN3CCN(S(=O)(=O)c4cccs4)CC3)cc(=O)oc2c1 | ? | -26.1%
Cc1ccc(-n2ncc3c(SCC(=O)NNC(=O)c4ccco4)ncnc32)cc1 | -9.5% | -14.2%
O=P(N1CC1)(N1CC1)N1CCc2ccccc21 | 0.4% | ?
CCSC1=C(C#N)C(c2cccc(OC)c2)CC(=O)N1 (stereo not given) | -29.5% | nt
COc1ccccc1N1C[C@@H]2C[C@@H](c3ccco3)N3CCC[C@@]23C1=O | -7.6% | -29.8%
O=C(COC(=O)C1CC2C=CC1C2)Nc1ccccc1F (stereo not given) | 7.1% | -3.3%
Cc1noc(/C=C/N(C)C)c1S(=O)(=O)N1CCCC(C(=O)N2CCCCC2)C1 (stereo not given) | -3.1% | -2.6%
CCOc1ccc(CNC(=S)N/N=C/c2ccc(OC)c(OC)c2)cc1 | ? | ?
O=C(COC(=O)Cc1ccc(Cl)cc1)Nc1ccccc1-c1ccccc1 | -0.7% | -12.0%
O=C(CSC1=NCCN1)Nc1ccccc1[N+](=O)[O-] | -4.9% | ?
Cc1ccc(Cn2c(CN3CCC(C(=O)O)CC3)cc3ccccc32)cc1 | -8.7% | -1.8%
COc1ccc(N2C(=O)C(Cl)=C(N3CCCC(C)C3)C2=O)cc1 (stereo not given) | ? | -1.3%

canonical_smiles | VACV Venus inh | VACV mCherry inh
Clc1cccc2c3c([nH]c12)CCNC3 | -11.1% | i
CCNC(=S)N1C2CCC1CC(NC(=O)Nc1ccc(C(=O)OCC)cc1)C2 (stereo not given) | -4.1% | -11.4%
O=C(CSc1nnc2[nH]c(=O)cc(-c3ccccc3)n12)Nc1ccc(F)cc1F | -10.3% | i
COc1ccc(N(C(=O)c2ccco2)C(C(=O)NC2CCCC2)c2ccc(N(C)C)cc2)cc1 (stereo not given) | ? | -20.4%
Fc1ccc(/C=C/c2ccc3ccccc3n2)cc1 | ? | ?
COc1ccc(-n2nnnc2SCC(=O)Nc2ccc3c(c2)OCCO3)cc1OC | -22.2% | -29.9%
CC(C)C[C@H](NC(=O)N1CC(=O)Nc2ccccc21)C(=O)N1CCC[C@H]1C(=O)O | 4.8% | 0.5%
NS(=O)(=O)c1ccc(CCNC(=O)Cc2ccc(Cl)cc2)cc1 | -11.8% | i
CC1CN(C(=O)/C(=C/c2ccco2)NC(=O)c2ccccc2)CC(C)O1 (stereo not given) | -6.5% | 11.0%
CC1CCN(N=Nc2nc3c([nH]2)c(=O)n(C)c(=O)n3C)CC1 | 8.9% | 4.4%
C[C@H](CO)N1C[C@H](C)[C@@H](CN(C)Cc2ccc(C(=O)O)cc2)Oc2c(NS(=O)(=O)c3cccs3)cccc2C1=O | -8.2% | -16.1%
COc1ccc(CS(=O)(=O)c2ncn[nH]2)cc1 | -0.4% | i
O=[N+]([O-])c1ccccc1OCCOCCOc1cccc2cccnc12 | -13.1% | -1.7%
CCOC(=O)C1(Cc2ccccc2)CCN(Cc2cccc(OC)c2O)CC1 | -11.9% | -19.8%
Cc1ccc2c(c1)C(c1ccccc1)N(C(=O)c1ccc(S(=O)(=O)N3CCOCC3)cc1)CC(=O)N2 (stereo not given) | -12.5% | -19.2%
CCC(CO)Oc1cc(NC(=O)c2ccccc2[N+](=O)[O-])c2ncn(C(C)C)c2c1 (stereo not given) | -10.0% | i
CCn1c(CC(=O)Nc2ccc(F)cc2)nnc1SCC(=O)NC1CCCC1 | -5.7% | -12.1%
CCCCCOCC1CC(C/C(C)=N/NC(N)=S)C(=O)O1 (stereo not given) | ? | 22.4µM*
